E coli growth: E. coli growth inhibition | OD600 absorbance (test concentration not listed) | AID 1053175 | Escherichia coli growth, OD600, 23 h; hits give low values | 330,000 compounds, 0.21% hits;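 active means OD600 absorbance below the run mean of sample wells minus 3.6 SD, in any replicate, cut at about 0.56 in these data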;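 further: stock transfer was 300 nL into about 60 µL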
UCH37 DUB inh: human UCH37 deubiquitinating enzyme inhibition. Q9Y5K5. purified proteasome/UCH37, Ub-AMC cleavage fluorescence. inhibition, % (concentration not given with the values). 330,000 compounds, 0.33% hits. AID 588478;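 active means mean of two replicates above 20%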;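 further: 0% = compound-free wells with enzyme and 100% = wells lacking proteasome; stock transfer was 100 nL into about 20 µL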
Target sequence (Q9Y5K5 whole entry, looked up): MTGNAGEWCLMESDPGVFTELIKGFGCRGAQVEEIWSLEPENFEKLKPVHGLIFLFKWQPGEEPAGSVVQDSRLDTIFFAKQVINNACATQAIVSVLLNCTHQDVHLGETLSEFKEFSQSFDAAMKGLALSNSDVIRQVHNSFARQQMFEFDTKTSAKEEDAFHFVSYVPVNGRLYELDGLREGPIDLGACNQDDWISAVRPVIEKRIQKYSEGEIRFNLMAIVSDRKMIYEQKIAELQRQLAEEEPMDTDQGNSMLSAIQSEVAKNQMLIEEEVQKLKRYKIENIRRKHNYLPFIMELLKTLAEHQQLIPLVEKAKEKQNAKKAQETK
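Schedule: 30 min plus 25 min, room temperature / Material: human UCH37 within purified proteasomes / Technique: AMC fluorescence intensity at 355/460 nm / Buffer or medium: pH 7.4 Tris-HCl (50 mM) with ovalbumin, ATP-MgCl2, DTT / Controls: wells without proteasome as full block, compound-free enzyme plus substrate as uninhibited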
* hit, by the source's call.

Molecule	E coli growth	UCH37 DUB inh
COC(=O)NN=Cc1cc(C)n(-c2ccc(F)cc2)c1C	0.695	1.0
C=CCc1cccc(C=NNC(=O)C(=O)Nc2ccc(C)cc2)c1O	0.741	0.5
CC(=NNC(=O)CSCc1ccc(Cl)cc1)c1ccc2c(c1)OCCO2	0.689	3.7
Cc1ccc(C(=O)NN=Cc2cccnc2)s1	0.639	0.9
O=C(Cn1c(C(F)(F)F)nc2ccccc21)NN=Cc1ccco1	0.721	3.2
CCn1cc(C=NNC(=O)Cc2ccc([N+](=O)[O-])cc2)c(C)n1	0.669	5.7
CC(=NOCC(=O)Nc1ccccc1C(C)(C)C)c1ccc2c(c1)OCCO2	0.661	0.9
Cn1nccc1C(=O)Oc1ccc(C=NNC(=O)c2ccccc2O)cc1	0.709	-2.2
COc1ccc(-c2cc(C(=O)NN=Cc3cccnc3)c3ccccc3n2)c(OC)c1	0.654	-7.6
CN=c1scc(-c2ccccc2F)n1N=Cc1ccc(O)c(O)c1O	0.721	2.7
O=C(NN=Cc1ccc(OCc2ccccc2)cc1)c1ccc(O)cc1	0.702	5.8
CCc1ccc2[nH]c3nc(NN=Cc4cccc(O)c4)nnc3c2c1	0.649	3.2
Cc1ccc(C(=O)NC2CC3CCCC(C2)N3C(=O)NC2CCCCC2)cc1 (stereo not drawn)	0.659	5.2
Nc1c(S(=O)(=O)c2ccccc2)c2nc3ccccc3nc2n1N=Cc1ccco1	0.787	-64.2
COc1cc(C=NNC(=O)Cc2ccc(Br)cc2)cc(OC)c1O	0.731	2.4
COc1ccccc1N1CCN(S(=O)(=O)c2ccc3c4c(cccc24)C(=O)N3C)CC1	0.743	-1.7
CCCc1c(C(=O)NN=Cc2ccccc2OCc2ccc(F)cc2)nnn1-c1nonc1N	0.702	-42.0
COc1ccc(C(C)=NOC/C(O)=C(\C#N)c2nc3ccccc3[nH]2)c(OC)c1	0.745	4.2
CC1CC(=NNC(=O)c2ccc(CSc3nc4ccccc4[nH]3)cc2)CC(C)(C)C1 (stereo not drawn)	0.692	1.8
CC(=O)N(N=C1Sc2ccccc2C1=O)c1ccc(C)cc1C	0.754	34.8*
COc1ccc(C(=O)ON=C2CCCc3nonc32)cc1	0.673	0.8
Cc1ccsc1C=Nn1c(=S)[nH]nc(C)c1=O	0.7	7.6
CN1CCN(CCC(=O)NN=Cc2cc([N+](=O)[O-])ccc2OC(F)F)CC1	0.693	5.9
CC(=NOC(=O)c1ccc(OC(C)C)cc1)c1ccc(C)c(C)c1	0.704	3.0
O=C(COc1ccc(Cl)cc1)NN=Cc1cccc2cccnc12	0.695	-58.2
COc1ccc(C(C)=NOCC(=O)N=Nc2c(O)[nH]c3ccc(Br)cc23)cc1	0.722	6.9
Cc1ccc(OCC(=O)NN=Cc2ccccc2)c([N+](=O)[O-])c1	0.68	3.6
Cc1ccc(C=NNC(=O)NC23CC4CC(CC(C4)C2)C3)o1	0.642	6.6
COc1ccccc1C(C)=NNC(=S)NCc1ccccc1	0.684	2.6
O=C(NN=C1CCCc2ccccc21)c1ccc([N+](=O)[O-])cc1	0.685	4.6
CCN(CC)c1ccc(C=NN2CCN(c3ccccc3OC)CC2)cc1	0.604	3.2
CN1CCN(N=Cc2ccc(OCc3ccccc3)cc2)CC1	0.661	2.0
O=C(NN=C1CCS(=O)(=O)c2ccc(F)cc21)c1cccnc1	0.688	2.9
CC(Cn1cnc([N+](=O)[O-])n1)=NNC(=O)c1ccc(Br)cc1	0.7	0.5
COc1cc(C=Nn2cnnc2)ccc1OC(=O)c1cccnc1	0.735	3.9
O=C(NN=C/C=C\c1ccccc1)c1cnccn1	0.648	10.7
COc1ccccc1NS(=O)(=O)c1cccc(C(=O)NN=C(C)c2ccncc2)c1	0.694	3.9
O=C(NN=Cc1c(Cl)cccc1Cl)C(=O)NC1CC1	0.63	-3.0
CC(=NNc1ccc(Cl)cc1)c1c(O)cc(C)oc1=O	0.672	0.2
O=C(NN=Cc1ccccc1)C(O)c1ccccc1 (stereo not drawn)	0.662	2.5
O=C(NN=Cc1cn(Cc2ccccc2)c2ccccc12)c1cccnc1	0.695	4.8
O=C(NN=Cc1cn(-c2ccccc2)nc1-c1cc2ccccc2o1)c1ccccc1Br	0.748	-18.8
CC(CC(=O)Nc1cc(C)ccn1)=NNC(=O)C(=O)NC(C)C	0.666	6.0
CC(=O)NC(CC(C)C)C(=O)NC(Cc1ccccc1)C(N)=O (stereo not drawn)	0.685	2.5
O=C(NN=Cc1ccsc1)c1cc(-c2cccs2)nc2ccccc12	0.655	-33.2
Cn1cc(Br)c(C(=O)NN=Cc2cc3ccccc3nc2Cl)n1	0.664	4.2
Nc1nonc1-n1nnc(C(=O)NN=Cc2ccncc2)c1CSc1ccccc1	0.653	2.6
CC(CC(=O)NCc1ccco1)=NNC(=O)Cc1ccccc1	0.753	-4.4
O=C(CSc1cccc2cccnc12)NN=Cc1ccc(O)cc1	0.682	-5.0
O=C(NN=Cc1ccc[nH]1)c1cncc(Br)c1	0.7	11.6

(more compounds)
Molecule	E coli growth	UCH37 DUB inh
CC1CN(C)C(C)CC1=NOc1ccccc1[N+](=O)[O-] (stereo not drawn)	0.634	7.9
CCOc1ccc(S(=O)(=O)Nc2cc(Sc3ncn[nH]3)c3oc(=O)sc3c2)cc1	0.731	0.1
O=C(CC(=NO)c1ccccc1O)C(F)F	0.698	4.5
COc1cc(C(=O)NN=Cc2cn(Cc3cccc(F)c3)c3ccccc23)ccc1O	0.685	-30.3
CCOc1ccc2ccccc2c1C=NNC(=O)CNC(=O)Cc1ccccc1	0.677	-10.8
CCOC(=O)c1c(NC(=S)Nc2cc([N+](=O)[O-])ccc2OC)sc2c1CCCCC2	0.733	5.2
Nc1nonc1-n1nnc(C(=O)NN=Cc2cccc(Cl)c2Cl)c1CN1CCCC1	0.727	-0.1
O=c1nc2sc(=Cc3ccc(-c4ccccc4[N+](=O)[O-])o3)c(=O)n2nc1-c1ccccc1	0.714	4.8
Cc1ccc(C=NNc2nc(N3CCCCC3)nc(N3CCCCC3)n2)o1	0.729	5.4
CCN(Cc1ccccc1)c1ccc(C=NNC(=O)c2cccc(S(=O)(=O)N3CCOCC3)c2)cc1	0.722	-87.5
Cc1cc(NN=Cc2ccc(O)cc2O)nc(-c2ccccc2O)n1	0.704	-13.0
O=C(NN=C/C=C\c1cccc([N+](=O)[O-])c1)c1cccnc1	0.718	10.2
COc1cccc(C=NNC(=O)CN2CC(c3ccccc3)CC2=O)c1O (stereo not drawn)	0.739	1.1
O=C(NN=Cc1c(O)ccc2ccccc12)c1ccc(S(=O)(=O)N2CCCCC2)cc1	0.691	-161.8
Cn1c(SCC(=O)NN=Cc2ccc(O)c(O)c2)nc2ccccc21	0.675	3.6
COc1cccc(C=Nn2cncn2)c1OCC#N	0.666	-7.7
O=C(NN=C/C(Cl)=C/c1ccccc1)c1ccco1	0.623	12.3
O=C(NN=C/C=C/c1ccccc1)c1ccccc1Br	0.704	8.5
O=C(COc1ccc2ccccc2c1)NN=Cc1ccccn1	0.684	4.7
Cc1ccc(C(=O)NN=CC2CC=CCC2)cc1[N+](=O)[O-] (stereo not drawn)	0.714	5.8
NCC(=NO)c1ccc(Cl)cc1Cl	0.69	1.5
COc1ccc(C=NNC(=O)c2ccc(-c3ccccc3)cc2)c(OC)c1OC	0.706	-41.0
CCOC(=O)c1cccc(-n2c(-c3ccc(OC)cc3)nc3nc4ccccc4nc32)c1	0.721	-129.7
CCOC(=O)c1sc2ncn(N=Cc3cccnc3)c(=O)c2c1C	0.713	-0.8
CC(=NNC(=O)c1cc(C)nc2ccccc12)c1ccncc1	0.643	1.8

Other results follow.
Structure | E coli growth | UCH37 DUB inh
Cc1ccc(CC(=O)NN=Cc2ccc(OC(=O)c3ccc([N+](=O)[O-])cc3)cc2)cc1 | 0.719 | 6.2
CCC(=NNS(=O)(=O)c1ccc(Cl)cc1)c1ccc(O)cc1 | 0.726 | 7.8
Cc1cc(C=NNC(=O)CC(=O)NC2CCCCC2)c(C)n1-c1ccc(Cl)c(Cl)c1 | 0.72 | 1.8
COc1ccc(C=NNc2c(Cl)cc(Cl)cc2Cl)cc1CN1CCOCC1 | 0.655 | 6.2
NC(=NOC(=O)c1ccccc1Cl)c1cccc([N+](=O)[O-])c1 | 0.672 | 3.4
COc1ccc(C=NNc2ncc(F)c(N3CCOCC3)n2)cc1OC | 0.637 | 10.3
CC(CC(=O)NCc1ccco1)=NNC(=O)COc1ccc(C)cc1 | 0.688 | -0.5
COc1ccc(-c2nc3ccccn3c2N=Cc2ccc(OC)c(OC)c2)cc1O | 0.629 | -242.2
Cc1ccc(C(=O)NN=CC2=Cc3ccccc3OC2C)cc1 (stereo not drawn) | 0.645 | -12.1
CCOC(=O)NN=Cc1cn(Cc2ccccc2Cl)c2ccccc12 | 0.677 | 5.7
Brc1ccc(-c2csc(N=CN3CCCC3)n2)cc1 | 0.655 | 2.6
COC(=O)c1ccc(C=NN2C(C)CCCC2C)cc1 (stereo not drawn) | 0.7 | 0.0
COc1cccc(C=NNc2nn3cnnc3c3ccccc23)c1 | 0.718 | -1.3
O=C1Nc2ccccc2C1=NN=Cc1ccc(O)c(O)c1 | 0.654 | 12.6
Cc1cc(C)nc(NN=CC2=C(N3CCOCC3)/C(=C/c3ccccc3)CC2)n1 | 0.714 | 0.1
O=C(Cn1cc(C=NNC(=O)c2cccc3ccccc23)c2ccccc21)Nc1ccc(F)cc1 | 0.753 | -73.2
COc1cccc(C(C)=NNC(=O)Cc2c(C)[nH][nH]c2=O)c1 | 0.654 | 2.1
FC(F)(F)c1cnc(NN=Cc2ccncc2)c(Cl)c1 | 0.713 | 11.2
O=C(CNC(=O)c1cccc(Br)c1)NN=Cc1cccnc1 | 0.627 | -0.1
Cc1ccc(C=NNc2nncc(-c3ccccc3)n2)o1 | 0.706 | 7.7
Cc1cccc(C=NNC(=O)C[n+]2ccccc2)c1 | 0.63 | 4.0
COc1ccccc1C=NOC(=O)c1ccc(C)cc1 | 0.667 | 2.8
CC(=NNC(=O)c1ccc([N+](=O)[O-])cc1Cl)c1ccccc1 | 0.675 | 2.6
CCCc1c(C)nn(C(=O)C(C#N)=NNc2ccccc2[N+](=O)[O-])c1C | 0.673 | 13.5
CC(=NNc1nc(C)cc(-c2ccccc2)n1)c1ccco1 | 0.646 | 6.8
O=S(=O)(c1ccccc1)c1ccccc1C=NO | 0.744 | 0.3
CCOC(=O)Cc1cc(=O)[nH]c(N=C(N)Nc2ccc(OC)cc2)n1 | 0.667 | 1.3
O=C(NN=Cc1cccc(OCc2ccccc2)c1)c1cccs1 | 0.683 | 2.9
CCOc1cc(C=NNC(=O)COc2nc(C)cc(COC)c2C#N)ccc1O | 0.693 | 3.4
COc1ccc(C=NOCC(=O)N(Cc2ccccc2)c2ccccc2C(=O)O)cc1 | 0.705 | 0.0
Cc1ccc(C(=O)NN=C2CCCc3ccccc32)c(C)c1 | 0.683 | 0.0
O=C(NN=C/C=C/c1cccc([N+](=O)[O-])c1)c1ccncc1 | 0.693 | 11.5
COc1ccc(C(=O)NN=C(C)c2cccc(NC(=O)c3ccncc3)c2)cc1OC | 0.678 | 2.5
CCN(CC)Cc1c(C(=O)NN=Cc2c(Cl)cccc2Cl)nnn1-c1nonc1N | 0.699 | 1.0
COc1ccc(OC)c2c1C(=O)c1ccccc1C2=O | 0.692 | 5.1
O=C(Cc1nc2ccccc2[nH]1)NN=Cc1ccccc1 | 0.725 | 5.2
N#Cc1c(N=Cc2ccc(-c3ccc(C(=O)O)c(Cl)c3)o2)sc2c1CCCC2 | 0.668 | 15.1
CC(=NNC(=O)c1ccc2c(c1)OCO2)c1ccc2c(c1)OCO2 | 0.692 | 6.6
C=CCn1cc(C=NNc2nc3ccccc3[nH]2)c2ccccc21 | 0.609 | -10.2
NC(=S)NN=Cc1ccccc1[N+](=O)[O-] | 0.697 | 2.9
COc1ccc(C=NNC(=O)c2cccc(NC(C)=O)c2)c(C(=O)O)c1OC | 0.704 | 5.4
CCOc1ccc(/C=C2/Sc3ccc(C(=O)N4CCN(C(=O)c5ccco5)CC4)cc3N(C)C2=O)cc1OC | 0.699 | 4.3
Cc1cccc(C)c1OCC(=O)NN=Cc1cccnc1 | 0.663 | 1.4
C/C(C=Nn1c(-c2ccncc2)n[nH]c1=S)=C\c1ccco1 | 0.667 | 11.7
CC(CC(=O)N1CCN(C=O)CC1)=NNC(=O)c1ccc(Br)cc1 | 0.676 | 1.8
COc1ccc(C=NNC(=O)c2cccnc2)cc1CN1CCCc2ccccc21 | 0.665 | 2.3
CCC(CC)C(=O)Nc1cccc(C(C)=NNC(=O)c2c(Br)cnn2C)c1 | 0.756 | 5.3

Some of the entries so far, with two lines to a compound.
Every second line gives: E coli growth, UCH37 DUB inh
N#Cc1c(N=Cc2ccc(-c3ccc(C(=O)O)c(Cl)c3)o2)sc2c1CCCC2
  0.668, 15.1
CC(=NNC(=O)c1ccc2c(c1)OCO2)c1ccc2c(c1)OCO2
  0.692, 6.6
C=CCn1cc(C=NNc2nc3ccccc3[nH]2)c2ccccc21
  0.609, -10.2
NC(=S)NN=Cc1ccccc1[N+](=O)[O-]
  0.697, 2.9
COc1ccc(C=NNC(=O)c2cccc(NC(C)=O)c2)c(C(=O)O)c1OC
  0.704, 5.4
CCOc1ccc(/C=C2/Sc3ccc(C(=O)N4CCN(C(=O)c5ccco5)CC4)cc3N(C)C2=O)cc1OC
  0.699, 4.3
Cc1cccc(C)c1OCC(=O)NN=Cc1cccnc1
  0.663, 1.4

Screening data deposited in PubChem BioAssay by ICCB-Longwood Screening Facility, Harvard Medical School.

Only part of the results is shown; rates above refer to the full screens.
